# HIV Env fusion – inhibitors of HIV-1 Env-driven cell-cell fusion, primary screen, HeLa-JRFL effector, CEM21 target cells, luciferase; inhibition, % at 12.3 µM; actives 1.1% (n = 360,000);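 active means mean replicate inhibition score of at least 50 and every replicate individually at or above 50; inconclusive means only one of the two criteria met; inactive means mean below 50 and not all replicates reaching 50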;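 further: 0% = plate neutral controls and 100% = maraviroc near 300 nM; one replicate is shown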
# CSC inhib – cancer stem cell viability inhibitors, primary screen, luminescence | cancer stem cell-like cells viability | inhibition, % at 7.5 µM | AID 2717, 2010 | actives 1.1% (n = 300,000);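 active means mean at 75% or more and at least half the replicates too; inconclusive means mean and replicates disagree; tested in HMLE shEcad cells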;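 further: 0% = median of negative and 100% = median of positive control wells; the first replicate is given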
# MT1-MMP act inh – blockers of MT1-MMP proenzyme processing, primary screen, HT1080 RFP-PRO-GFP cells, GFP/RFP fluorescence. AID 651647, 2012. GFP/RFP ratio fluorescence, overnight; percent of plate control window, DMSO zero. Matrix metalloproteinase-14 (Homo sapiens), P50281. GFP/RFP ratio change, % at 20 µM. actives 0.061% (n = 360,000);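 active means GFP/RFP ratio change of at least 30% with cell ATP level not reduced by more than half and red fluorescence within 50% of control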; further: strong numbers were not always called active
#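 Test system: HT1080 cells expressing an RFP-PRO-GFP fluorescent reporter construct / Compound dosing: single-point 20 µM compound, 1% DMSO / Schedule: cells overnight before dosing, compound overnight, 37 °C, 5% CO2 / Evaluation: GFP/RFP fluorescence ratio / Control set: DMSO and RFP-L50D-GFP cell wells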
# UUG fidelity – modulators of yeast start codon fidelity, primary screen, whole organism, S. cerevisiae, single point, plate reader; actives 0.13% (n = 350,000); activity score, % at 18.7 µM; S. cerevisiae UUG-firefly luciferase reporter, luminescence/redox ratio;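 active means replicate mean at a twofold rise or more, about +100% in these data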;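 further: firefly luciferase made from a UUG start codon reports start codon fidelity; reporter light over untreated wells divided by growth signal over untreated wells; some hits fall short of that in this replicate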
# PABP FP inh – PABP poly(A) RNA binding inhibitors, primary screen, biochemical, fluorescence polarization, uHTS. actives 1% (n = 290,000). AID 2014, 2009. inhibition, % at 35 µM. Polyadenylate-binding protein 1 (Homo sapiens), P11940;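 active means 50% or more with normal probe brightness, or confirmed in later tests; inconclusive means above 50% with abnormal brightness, or retests that disagree; inactive means below 50% or failed in later tests; about a fifth of its hits are not listed in these tables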;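 further: calls also rest on retests at 20 µM and on dose response follow-up; controls were probe without protein and protein plus probe with vehicle; some compounds called inactive have numbers as strong as hits; many hits fall short of the cut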
# Rce1 inh – yeast Rce1p protease inhibitors, primary screen, biochemical, fluorescence, cell-free homogeneous; yeast membranes, quenched prenylated peptide cleavage fluorescence; calls only; actives 0.27% (n = 290,000); AID 2563, 2010;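 active means fall in fluorescence gain of 50% or more versus controls, with final raw signal at or below 3038400; inconclusive means same 50% fall but final raw signal above 3038400; inactive means fall in fluorescence gain under 50%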;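 further: plate controls were neutral control wells for no effect and wells lacking membranes for full effect; tested at 10 µM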
# Target sequence (Q03530 whole entry, looked up): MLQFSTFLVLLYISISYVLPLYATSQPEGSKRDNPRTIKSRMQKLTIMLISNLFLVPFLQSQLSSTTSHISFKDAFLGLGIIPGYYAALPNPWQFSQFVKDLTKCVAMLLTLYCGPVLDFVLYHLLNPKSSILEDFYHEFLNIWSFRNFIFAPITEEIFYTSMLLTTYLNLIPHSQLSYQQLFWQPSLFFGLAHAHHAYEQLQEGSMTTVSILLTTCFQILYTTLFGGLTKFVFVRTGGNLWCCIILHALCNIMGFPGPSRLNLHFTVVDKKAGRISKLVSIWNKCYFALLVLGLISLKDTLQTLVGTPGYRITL
# eIF4H inh – human eIF4H binding inhibitors, primary screen, translation initiation inhibitor project, biochemical, uHTS, fluorescence polarization | inhibition, % at 35 µM | eIF4H fluorescence polarization binding assay | actives 0.94% (n = 290,000) | AID 2012, 2009;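 active means 50% or more with normal probe brightness, or confirmed in later tests; inconclusive means above 50% with abnormal brightness, or retests that disagree; inactive means below 50% or failed in later tests; about a fifth of its hits are not listed in these tables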;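 further: calls also rest on retests at 20 µM and on dose response follow-up; 0% = protein and probe with vehicle and 100% = probe without protein; strong numbers were not always called active; many hits fall short of the cut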
# MT1-MMP act inh RFP – recorded beside MT1-MMP act inh, whose call it bears; RFP signal change, %; measured here: RFP expression control read;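 0 = vehicle wells; hits needed this value within 50% of zero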
# Starred values were filed as active, the others as inactive; i = inactive; ? = inconclusive; . = no result given; & = joins results of further samples.
SMILES,HIV Env fusion,CSC inhib,MT1-MMP act inh,MT1-MMP act inh RFP,UUG fidelity,PABP FP inh,Rce1 inh,eIF4H inh
COc1ccc(CC(=O)Oc2ccc(Cl)cc2Br)cc1S(=O)(=O)N1CCOCC1,-2,-2,2,1,-6,.,i,.
C[C@@H]1ON(C)[C@H]2C[C@H]3c4cc(N5CCN(C)CC5)ccc4CCN3C(=O)[C@@H]12,-13,.,1,2,-11,.,.,.
COc1ccc(OC)c(-n2nnnc2SCC(=O)N2CCN(C(=O)c3ccco3)CC2)c1,14,.,8,6,.,0,i,-6
Cc1cn([C@H]2C[C@H](O)[C@@H](CCC(=O)NCCc3c[nH]c4ccccc34)O2)c(=O)[nH]c1=O,-71,.,3,5,-10,.,.,.
O=C(CCC(=O)N1CCOc2ccc(Cl)cc21)NCCCN1CCC(Cc2ccccc2)CC1,8,13,-5,-3,11,-9,i,0
O=S1(=O)CCC(NCC2CCCO2)C1 (stereo not given),-36,-10,-7,-1,-17,5,i,-10
O=C(N/N=C/c1cccnc1)c1ccc(S(=O)(=O)N2CCCCCC2)cc1,-8,-1,-1,2,-5,-5,i,-5
Cn1cnnc1SCC(=O)c1cc2ccccc2o1,-8,-24,0,4,.,-9,i,7
COc1ccccc1S(=O)(=O)CC(O)COc1ccccc1Cl (stereo not given),-3,-4,-2,-2,-6,4,i,4
COc1ccc(C(=O)NCc2cn3ccsc3n2)cc1OC,-14,5,2,0,-19,3,i,-4
Cc1cc2ccccn2c1C(=O)c1ccc(S(=O)(=O)N(C)C)cc1,16,-6,1,-17,.,?,i,-3
Cc1ccc(S(=O)(=O)NCC(=O)OCC(=O)c2ccc(Br)s2)cc1,.,11,-2,0,8,0,i,7
Cc1c(NC(=O)C(C)OC(=O)c2ncc(Cl)c(Cl)c2Cl)c(=O)n(-c2ccccc2)n1C (stereo not given),-19,-4,4,1,.,.,i,.
O=C(CSc1nncn1-c1cccnc1)Nc1cccc(C(F)(F)F)c1,22,-5,2,-1,-11,7,i,-10
COc1cc(/C=C(\C#N)C(=O)NCC2CCCO2)c([N+](=O)[O-])cc1OC (stereo not given),-33,3,1,0,-21,19,i,0
Clc1ccccc1-c1nn2c(-c3ccccn3)nnc2s1,-128,-3,-1,0,-17,4,i,3
COC(=O)c1ccccc1OCCCN(C)C,-10,.,-1,1,.,-7,i,2
COC(=O)c1ccccc1NC1=C/C(=N\S(=O)(=O)c2cccs2)c2ccccc2C1=O,30,102*,2&-11,-12&-31,-25&-14,-1,i,11
COc1cc(NC(=O)N[C@@H](Cc2c[nH]c3ccccc23)C(=O)O)c(C(=O)O)cc1OC,8,-2,0,3,-3,6,i,-11
CCCCC(=O)/C=C/n1c(=S)oc2ccccc21,-112,16,-3,-6,-22,-6,i,-9
CCC(=O)NC(Nc1sc2c(c1C(=O)OC)CCCC2)(C(F)(F)F)C(F)(F)F,-58,11,-1,-4,-22,-6,i,-6
CC(=O)Nc1ccc(NC(=O)c2cccc3c2-c2ccccc2C3=O)cc1,22,14,0,0,7,-1,i,-13
O=S(=O)(Cc1ccccc1)Nc1ccc(F)cc1,-13,-3,0,3,1,0,i,4
CS(=O)(=O)N1CCN(c2ccccc2[N+](=O)[O-])CC1,11,0,1,1,.,6,i,6
CCN1C(=O)C(CC(=O)NCc2ccc(Cl)cc2)N(CC)C1=O (stereo not given),.,-10,6,3,.,-5,i,0

# Next section, starting with the last 6 of the part before.
SMILES,HIV Env fusion,CSC inhib,MT1-MMP act inh,MT1-MMP act inh RFP,UUG fidelity,PABP FP inh,Rce1 inh,eIF4H inh
CCCCC(=O)/C=C/n1c(=S)oc2ccccc21,-112,16,-3,-6,-22,-6,i,-9
CCC(=O)NC(Nc1sc2c(c1C(=O)OC)CCCC2)(C(F)(F)F)C(F)(F)F,-58,11,-1,-4,-22,-6,i,-6
CC(=O)Nc1ccc(NC(=O)c2cccc3c2-c2ccccc2C3=O)cc1,22,14,0,0,7,-1,i,-13
O=S(=O)(Cc1ccccc1)Nc1ccc(F)cc1,-13,-3,0,3,1,0,i,4
CS(=O)(=O)N1CCN(c2ccccc2[N+](=O)[O-])CC1,11,0,1,1,.,6,i,6
CCN1C(=O)C(CC(=O)NCc2ccc(Cl)cc2)N(CC)C1=O (stereo not given),.,-10,6,3,.,-5,i,0
O=C(O)C1CCCN1C(=O)NC1CCCCC1 (stereo not given),-10,3,-2,-2,-7,8,i,8
Cc1oc(-c2ccc(Cl)cc2)[n+]([O-])c1C,-77,-16,0,0,-21,5,i,-11
COc1cccc(CNn2cn[nH]c2=S)c1OCc1ccccc1,-8,-11,1,8,.,-11,i,5
CCOC(=O)N1CCN(S(=O)(=O)c2cc(-c3nn4c(C)nnc4c4ccccc34)ccc2C)CC1,.,10,10,4,.,0,i,-18
Cc1[nH][nH]c(=O)c1C(c1c(C)[nH][nH]c1=O)c1cn(Cc2ccc(Cl)c(Cl)c2)c2ccccc12,.,67,-4,2,-16,8,i,-2
COc1ccccc1C(=O)NNC(=O)C(=O)NC(C)(C)C,9,-1,1,7,.,-1,i,-4
CCCN=C1NC(=O)C(CC(=O)NCCc2ccc(OC)c(OC)c2)S1 (stereo not given),23,-5,-2,5,.,6,i,0
CC(=O)c1ccc(NC(=O)CSc2nc(Nc3ccccc3)nc(N3CCOCC3)n2)cc1,19,-14,1,-2,-9,-15,i,-18
COc1ccc(-n2nc(C(=O)O)c3ccccc3c2=O)cc1,-32,-3,4,3,-15,10,i,-5
Cc1csc2nc(CSc3ccc(Cl)cc3)cn12,.,42,-1,-2,-46,8,i,-3
COc1ccc(N2Cc3cccc(C(=O)N4CCN(C(=O)c5ccco5)CC4)c3C2=O)cc1,1,-5,1,3,23,70*,i,93*
N#CCCn1nc(-c2ccc(Cl)cc2)cc1Nc1ccccc1NC(=O)C(F)(F)F,5,3,.,.,.,-6,i,-12
COc1ccc(NS(=O)(=O)c2cc(NC(=O)c3cnc(C)cn3)ccc2N2CCCCC2)cc1,20,31,-3,-8,.,0,i,-1
Cc1cc(C(=O)N/N=C\C(Br)=C\c2ccccc2)c(C)o1,-8,.,4,1,.,0,i,-1
OC(c1cccc(Cl)c1)c1nccc2ccccc12 (stereo not given),9,-4,0,1,-17,-6,i,-12
C=CCNCCOCCOc1ccccc1-c1ccccc1,4,-7,-3,-2,.,2,i,2
COc1cc2c(cc1OC)-c1cc(NC3CCCCCC3)nc(=O)n1CC2,.,-2,6,-4,-21,14,i,5
COCC(=O)N1CCC(Oc2ccc(C(=O)NCc3cc(C(C)C)no3)cc2)CC1,-3,19,-1,-6,-15,3,i,-9
CCCN(CCC)CCCNc1ccc(C(=O)Nc2cccc(OC)c2)cc1[N+](=O)[O-],23,.,7,-1,11,-2,i,5
COc1nccc(C(F)(F)F)c1C(=O)NC(=O)Nc1ccccc1,-1,-1,-1,0,-3,9,i,-7
COc1cccc(C#Cc2ccc3c(c2)O[C@@H](CN(C)C(=O)c2ccccn2)[C@@H](C)CN([C@H](C)CO)S3(=O)=O)c1,-17,.,-1,-3,65&91&-1,.,.,.
CCCCNc1nc2ccccc2nc1Cl,-16,12,4,1,.,-10,i,5
COc1ccc2c(CC(=O)OCC(=O)NC(N)=O)coc2c1,2,-7,2,5,-27,2,.,-7
O=C(OCn1nnc2ccccc2c1=O)C12CC3CC(CC(O)(C3)C1)C2,2,12,14,-2,14,1,i,-18
COc1cc(C)nc(Oc2ccc(OCCOc3ccc(C)cc3)nn2)n1,.,-7,3,6,-2,-2,i,1

# Carrying on.
SMILES,HIV Env fusion,CSC inhib,MT1-MMP act inh,MT1-MMP act inh RFP,UUG fidelity,PABP FP inh,Rce1 inh,eIF4H inh
Cc1ccccc1OC(=O)C1C(c2ccccc2)C(C(=O)O)C1c1ccccc1 (stereo not given),-118,-5,2,-3,-2,3,i,4
COC(=O)c1cc(Br)c(=O)n(-c2nccs2)c1,.,.,2,1,0,8,i,2
O=c1c([N+](=O)[O-])c[nH]c2ccccc12,-45,-8,1,3,-7,12,.,10
O=C(COC(=O)c1ccc(F)cc1)NCC1COc2ccccc2O1 (stereo not given),-12,-14,3,1,0,.,.,.
Cc1cc(C(C)(C)C)cc(C)c1S(=O)(=O)N1CC(=O)Nc2ccccc21,5,9,4,4,-3,2,i,0
CC(C)c1csc(CN2CCN(Cc3ccccc3)C(CCO)C2)n1 (stereo not given),-9,2,-2,-3,7,0,i,-8
COc1ccc(OC(C)C(=O)Nc2ccccc2F)cc1 (stereo not given),9,0,3,6,1,6,i,-6
CC1CCN(C(=O)C2CCN(C(=O)c3cc4sccc4n3Cc3ccc(F)cc3)CC2)CC1,44,-11,3,-15,-5,8,i,-13
O=C(NCC1CCOCC1)c1cc(COc2ccc(F)cc2F)on1,-13,-11,-1,-2,-28,9,i,-6
O=C(NCC(c1cccnc1)N1CCN(c2ccccc2F)CC1)c1cccc(Cl)c1 (stereo not given),.,-7,3,-18,-7,-4,i,0
Cc1ccc(C(=O)COC(=O)c2cn3ccccc3n2)cc1,-4,-6,5,2,-22,14,i,2
CCN(C(=O)COC(=O)c1n[nH]c2ccccc12)c1ccccc1,.,12,-4,-3,-20,.,.,.
COc1ccccc1CNC(=O)CCN1C(=O)c2ccccc2C1=O,-90,1,-5,4,-7,7,i,-9
COc1cccc(CN2CCNC(=O)C2CC(=O)N(Cc2cnn(C)c2)C(C)C)c1 (stereo not given),2,-1,-1,7,.,2,i,8
O=C(CSc1n[nH]c(-c2cccs2)n1)NC1CCS(=O)(=O)C1 (stereo not given),20,-3,3,3,-8,-2,i,-4
O=C(O)c1ccc(CN2CCOCC2)o1,-6,-12,3,3,-7,-5,i,-15
CCOCCCNC(=O)C1CCN(S(=O)(=O)c2c(C)noc2/C=C\c2ccc(OC)cc2)CC1,-31,-18,3,3,-2,.,i,.
CC(NC(=O)c1cc(=O)[nH]c2ccccc12)c1ccccc1 (stereo not given),20,-14,-3,-1,-1,39,i,6
Cc1ccc(S(=O)(=O)N2CCOCC2)cc1NC(=O)CSc1n[nH]c(N)n1,-7,0,1,6,.,-6,i,2
CCCc1c(C(=O)N/N=C/c2ccc3c(c2)OCO3)nnn1-c1nonc1N,3,.,7,0,-2,.,.,.
Cc1nnc(N2CCCCC2)c2ccccc12,.,-5,7,3,-15,0,i,5
Cc1cc(=O)[nH]c(N2CCN(C(=O)c3ccco3)CC2)n1,15,-5,3,4,-33,-8,i,-3
COc1cc2c(cc1OC)C(c1cc3cc(OC)c(OC)cc3[nH]c1=O)N(C(=O)C1CC1)CC2 (stereo not given),3,-13,2,-3,5,-2,.,-2
COc1cc(/C=N/NC(=O)C(C)Nc2n[nH]c(=O)[nH]c2=O)ccc1O (stereo not given),-6,-8,-6,3,-7,-7,i,-20
COc1cccc(OCC(O)CN2C(C)CCCC2C)c1 (stereo not given),.,52,0,1,-3,-1,i,0
COc1ccc(CCNC(=O)C/C(C)=N/NC(=O)C(c2ccccc2)c2ccccc2)cc1OC,-1,-9,0,-1,.,-9,i,-4

# Screens as filed in PubChem BioAssay.

# An unsorted share of the library; about 2.9% have a hit in one of these screens.
